# Compound activity (PubChem)
# LANA-H2A inh: blocks KSHV LANA binding to histone H2A/H2B; Q9QR71; cell-free LANA-H2A/H2B peptide, fluorescence polarization; inhibition, % (test concentration not listed); 0.6% of 320,000 active; AID 2629; in the data active means inhibition mostly above about 10%, no sharp cut-off; inactive means mostly below about 6.7%;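 further: stock transfer was 7.5 nL into about 10 µL; 0% = median of vehicle wells and 100% = median of positive control wells; one replicate is shown; the record names a cut of 25% in any replicate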
# UCH37 DUB inh: human UCH37 deubiquitinating enzyme inhibition | Q9Y5K5 | purified proteasome/UCH37, Ub-AMC cleavage fluorescence | inhibition, % (concentration not given with the values) | 0.33% of 330,000 active | AID 588478;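 active means mean of two replicates above 20%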;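 further: 0% = compound-free wells with enzyme and 100% = wells lacking proteasome; stock transfer was 100 nL into about 20 µL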
# Target sequence (Q9Y5K5 whole entry, looked up): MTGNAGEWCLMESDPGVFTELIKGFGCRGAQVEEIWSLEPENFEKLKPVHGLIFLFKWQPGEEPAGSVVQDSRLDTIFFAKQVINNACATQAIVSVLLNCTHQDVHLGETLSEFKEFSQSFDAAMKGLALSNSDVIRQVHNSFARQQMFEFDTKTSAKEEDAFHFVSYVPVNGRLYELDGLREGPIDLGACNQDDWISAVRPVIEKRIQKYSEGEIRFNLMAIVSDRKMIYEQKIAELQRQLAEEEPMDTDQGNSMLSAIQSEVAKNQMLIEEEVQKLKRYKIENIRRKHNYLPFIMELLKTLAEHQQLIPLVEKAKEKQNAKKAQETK
#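 Schedule: 30 min plus 25 min, room temperature / Material: human UCH37 within purified proteasomes / Technique: AMC fluorescence intensity at 355/460 nm / Buffer or medium: pH 7.4 Tris-HCl (50 mM) with ovalbumin, ATP-MgCl2, DTT / Controls: wells without proteasome as full block, compound-free enzyme plus substrate as uninhibited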
# ALR inh: blocks human ALR sulfhydryl oxidase activity; P55789; purified ALR, DTT oxidation, H2O2 HRP-luminol luminescence; inhibition, % (concentration not given with the values); 3.8% of 290,000 active;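 active means mean and each replicate at 75% or more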;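 further: stock transfer was 7.5 nL into about 7.5 µL; 0% = neutral wells and 100% = wells with inactivated enzyme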
# Target sequence (P55789 whole entry, looked up): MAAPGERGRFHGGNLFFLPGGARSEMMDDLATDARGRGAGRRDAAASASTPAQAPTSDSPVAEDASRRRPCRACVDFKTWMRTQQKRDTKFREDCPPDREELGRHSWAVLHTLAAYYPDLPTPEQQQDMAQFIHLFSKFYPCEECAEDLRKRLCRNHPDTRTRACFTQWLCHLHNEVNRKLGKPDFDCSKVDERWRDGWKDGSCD
# HNF4A DNA FP: change in binding of human HNF4 alpha to DNA | HNF4a-FITC DNA binding, fluorescence polarization, 1 h | activity change, % at 10 µM | 0.3% of 360,000 active; in the data active means activity change above about 30%, passing the limit was not always enough;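 further: controls were the assay level and a saturating level of protein; the project sought stronger binding though the title names inhibitors; some compounds called inactive have numbers as strong as hits; positive values seem to mean higher polarization but the record does not say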
# E coli growth: inhibitors of Escherichia coli growth; OD600, 23 h; hits give low values; OD600 absorbance (no concentration beside the values); 0.21% of 330,000 active;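 active means OD600 absorbance below the run mean of sample wells minus 3.6 SD, in any replicate, cut at about 0.56 in these data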;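 further: stock transfer was 300 nL into about 60 µL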
# B2AR ag: human beta-2 adrenergic receptor agonism by FAP | P07550 | Am2.2-beta2AR cells, FAP receptor internalization, flow cytometry; reference of the scale not given here | response, % (concentration not given with the values) | 0.43% of 340,000 active | AID 504454;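 active means response above a set limit, near 3 SD of response in nonfluorescent compounds, cut at about 42% in these data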;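 further: stock transfer was 100 nL into about 11 µL; a reference agonist was the positive control; negative values mostly stem from fluorescent compounds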
# Target sequence (P07550 whole entry, looked up): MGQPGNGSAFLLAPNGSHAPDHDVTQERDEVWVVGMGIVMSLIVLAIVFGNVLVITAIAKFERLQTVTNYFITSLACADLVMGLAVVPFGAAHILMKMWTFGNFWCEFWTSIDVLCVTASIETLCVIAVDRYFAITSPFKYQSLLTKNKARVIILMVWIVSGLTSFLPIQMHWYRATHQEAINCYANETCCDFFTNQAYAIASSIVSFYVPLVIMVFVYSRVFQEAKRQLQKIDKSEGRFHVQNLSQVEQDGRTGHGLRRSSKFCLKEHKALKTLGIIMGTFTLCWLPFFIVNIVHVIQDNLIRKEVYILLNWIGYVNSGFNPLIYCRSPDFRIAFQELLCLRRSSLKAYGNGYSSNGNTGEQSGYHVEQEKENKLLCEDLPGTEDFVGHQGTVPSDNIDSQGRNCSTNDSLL
# FGF22 binding: binders of recombinant human FGF22 by thermal shift. Q9HCT0. SYPRO orange fluorescence; percent of sucrose octasulfate shift, DMSO zero. calls only at 9.99 µM. 1.5% of 340,000 active;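 active means melting point raised past a set limit in the mean and every replicate; three in four hits are not shown here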
# * = called active by the depositor; i = inactive; · = not tested or not shown; + = active, no number.
SMILES,LANA-H2A inh,UCH37 DUB inh,ALR inh,HNF4A DNA FP,E coli growth,B2AR ag,FGF22 binding
COc1ccc(-c2nc3c(c(=O)n(C)c(=O)n3C)n2CC2CC(c3ccccc3)=NO2)cc1OC (stereo unspecified),9.1,-2.9,-1,0.6,0.71,8,·
COCCn1c(SCC(=O)N2CCc3ccccc32)nc2c(c1=O)SC(C)C2 (stereo unspecified),8.1*,7.4,·,5.2,0.72,-10,i
CN(Cc1c(F)cccc1Cl)C(=O)c1ccc(NS(=O)(=O)c2ccc3[nH]c(=O)[nH]c3c2)cc1,·,4.2,·,0.7,0.62,-4,i
Cc1cc(NC(=O)c2cc(-c3ccccn3)nc3c(Cl)cccc23)no1,-1.7,-1.9,2,-1.7,0.74,-10,i
COC(=O)CSc1nnnn1-c1ccccc1,3.2,0.5,1,1.4,0.69,3,·
C1CN(c2nc(N3CCOCC3)nc(N3CCOCC3)n2)CCO1,-11,1.0,-2,·,0.72,·,·
O=c1c(Cc2ccccc2)c(O)c2cccc3c4c(n1c23)CCCC4,2.6,-11,30,-1.6,0.7,-5,i
Cc1cc(C)nc(Nc2n[nH]c(COc3ccc4ccccc4c3)n2)n1,0.5,2.9,-3,4.4,0.76,15,·
CCCCN1C(=O)/C(=C/C=C2\SCCN2C)SC1=S,·,8.5,·,203,0.74,-53,i
Cn1cc(S(=O)(=O)N2CCc3ccccc32)cc1C(=O)Nc1ccc(Cl)cc1,-0.2,1.7,-37,0.2,0.71,22,i
Cc1cc(C)cc(SCc2noc(C(=O)NCC3CCCO3)c2C(=O)O)c1 (stereo unspecified),0.6,5.0,59,-3.5,0.68,-4,i
NC(=O)COc1c(-c2ccco2)oc2ccccc2c1=O,1.8,-89,-2,1.8,0.71,3,i
O=C(Cn1cc(C(F)(F)F)ccc1=O)N1CCc2ccccc2C1,-3.9,2.2,3,2.1,0.68,-3,i
Cc1ccc(-c2ccccc2NC(=O)CS(=O)CC(=O)Nc2ccc(C)c(Cl)c2)o1 (stereo unspecified),-2.3,·,99*,-4.2,·,7,i
O=C(O)c1ccc(-n2nnnc2SCc2ccccc2)cc1,-1.0,-0.8,1,-0.1,0.73,-1,·
CCOc1ccc2[nH]c3c(N4CCC5(CC4)OCCO5)ncnc3c2c1,-0.9,-138,0,·,0.68,·,i
COc1ccc(COC(=O)NNC(=O)c2ccc(OC)cc2)cc1,1.8,3.2,-4,0.0,0.66,-9,·
CC(C)CCN(CCC(C)C)C(=O)Cc1c(O)c2ccccc2[nH]c1=O,-4.2,5.0,·,1.8,0.74,1,i
CNC(=O)c1csc(-c2ccncc2)n1,-4.5,6.3,-8,0.3,0.71,-12,·
COc1ccc(C2NC(=O)C(C#N)=C(S)N2c2ccc(C)cc2)cc1OC (stereo unspecified),0.5,5.7,35,-3.6,0.71,-3,i
CCSC1=C(C#N)C(c2ccc(OC)c(OC)c2)CC(=O)N1 (stereo unspecified),-3.7,1.2,·,1.4,0.79,-3,·
CCn1nnnc1SCC(=O)Nc1ccc(F)cc1,2.6,2.8,·,1.4,0.68,5,i
CC(Sc1nnnn1-c1cccc(F)c1)C(=O)NC1CCCC1 (stereo unspecified),-2.4,3.3,·,-1.2,0.68,-5,i
CCCCCCOc1ccc(-c2ccc(C#N)cn2)cc1,-7.2,-119,·,0.8,0.66,1,·
CCCCN(C(=O)c1ccc(C)c(S(=O)(=O)N2CCOCC2)c1)c1c(N)n(CCCC)c(=O)[nH]c1=O,4.3,·,-15,-2.3,·,6,i
# Carrying on:
SMILES,LANA-H2A inh,UCH37 DUB inh,ALR inh,HNF4A DNA FP,E coli growth,B2AR ag,FGF22 binding
CCCCN(CCCC)Cc1cc2ccccc2c2c1COC2,1.7,-0.5,-7,2.6,0.74,-8,·
CCOC(=O)[C@H]1[C@H]2COc3ccccc3[C@@H]2N2C(=O)c3cc(Br)ccc3NC(=O)[C@@]12C,-1.8,2.0,·,-0.8,·,6,i
COc1ccc(N2CCN(CCOc3ccc4c(C)cc(=O)oc4c3)CC2)cc1,0.4,-18,10,0.5,0.6,3,+
COc1ccc2oc(C(=O)OCC(=O)NCc3ccco3)c(C)c2c1,-3.4,-55,-12,-2.7,0.63,-6,i
Cc1cc2nc(SCC(=O)Nc3ccccc3C(=O)O)[nH]c2cc1C,-1.7,-0.6,59,7.0,0.62,5,+
COc1ccccc1N1CCN(C(=O)c2ccc3[nH]c4c(c3c2)CCCC4)CC1,-1.9,2.0,67,-5.7,0.68,33,·
CCN(C(=O)c1cc2c(=O)[nH]c3ccc(C)cc3c2s1)c1ccccc1C,4.2,-8.0,-10,1.9,0.7,2,i
O=C1CSC2(N1)C1CC3CC(C1)CC2C3 (stereo unspecified),-1.5,-4.1,·,3.6,0.69,0,i
COc1ccc(NC(=O)c2ccc([N+](=O)[O-])o2)cc1,-2.8,7.9,-27,-1.7,0.47*,3,i
O=C(N/N=C/c1ccncc1)NC12CC3CC(CC(C3)C1)C2,2.7,·,-13,3.0,·,1,i
CCOC(=O)Cc1cnc(N)s1,-5.3,1.9,-12,3.1,0.73,-4,i
Cc1ccc(-c2ccc(=O)n(CCC(=O)NCCN3CCCCC3C)n2)cc1 (stereo unspecified),-0.3,2.6,0,1.1,0.76,-3,·
CC(=O)NS(=O)(=O)c1ccc(Nc2ccc([N+](=O)[O-])c3nonc23)cc1,5.8,25*,-20,20,0.69,4,i
CC(=O)OCCCN1c2ccccc2Nc2nnc(-c3ccccc3)cc21,0.5,0.1,-10,1.0,0.74,-3,·
CCOC(=O)c1ccc(S(=O)(=O)N2CCN(C(=O)c3ccccn3)CC2)cc1,-1.0,2.7,-4,3.1,0.68,5,i
CC(=O)N1c2ccc(S(=O)(=O)NCCC(=O)N3CCCC(C)C3)cc2CC1C (stereo unspecified),-2.1,2.7,-9,0.4,0.68,-3,i
C#CCOCCOCCOCCNc1nc(N2CCN(C(=O)C([C@@H](C)CC)n3cc(C(N)Cc4ccc(O)cc4)nn3)CC2)nc(N2CCN(C(=O)[C@H](CCC(=O)O)n3cc(C(N)CO)nn3)CC2)n1 (stereo partly specified),2.2,0.8,1,-0.4,·,-1,·
O=C(NNC(=S)NCc1ccco1)c1ccccc1Br,3.4,3.3,14,-1.1,0.67,-4,i
O=C(NCCNCc1cccc(Cl)c1)c1ccco1,·,·,·,5.5,·,3,i
Fc1ccc(Br)cc1SCCc1ccncc1,-1.3,5.2,-12,-1.3,0.66,-4,i
Cc1ccc(S(=O)(=O)N2CCCC(C(=O)Nc3cccnc3)C2)cc1 (stereo unspecified),0.1,1.0,-27,-3.4,0.68,-5,·
Cc1cc(C(=O)COC(=O)c2cnccn2)c(C)n1-c1ccc(Br)cc1,-10,-4.9,3,0.1,0.71,-1,i
CCc1ccc(NC(=O)CSC2=C(C#N)C(c3ccco3)C3=C(CCCC3=O)N2)cc1 (stereo unspecified),-2.0,5.7,-11,5.9,0.73,13,·
Cc1c(Cl)c(=O)oc2cc(OCC(=O)N3CCCC(C)C3)ccc12 (stereo unspecified),-4.2,i,-3,-2.0,0.66,-4,i
CCn1ccnc1C(O)(c1ccccc1)c1ccccc1,2.3,1.8,-7,-1.1,0.69,-9,i
# (listing goes on)
SMILES,LANA-H2A inh,UCH37 DUB inh,ALR inh,HNF4A DNA FP,E coli growth,B2AR ag,FGF22 binding
COC(C(=O)C(O)C(C)O)C1Cc2cc3cc(OC4CC(OC5CC(O)C(O)C(C)O5)C(O)C(C)O4)c(C)c(O)c3c(O)c2C(=O)C1OC1CC(OC2CC(OC3CC(O)C(OC)C(C)O3)C(O)C(C)O2)C(O)C(C)O1 (stereo unspecified),·,·,·,1.2,·,-1,i
CC[C@]12c3[nH]c4cc(CCC(=O)N(C)C)ccc4c3CCN1C(=O)[C@@H](CC(=O)NCCC1=CCCCC1)C[C@@H]2C(=O)N1CCN(C(=O)C2CC2)CC1,·,3.3,·,-3.0,0.68,7,i
COc1ccc(CCNC(=O)C2CCN(S(C)(=O)=O)CC2)cc1OC,0.2,0.0,0,3.0,0.67,-10,·
CC[C@]12c3[nH]c4ccc(Cl)cc4c3CCN1C(=O)[C@@H](CC(=O)NCc1ccco1)C[C@@H]2C(=O)N1CCN(C(=O)C2CC2)CC1,·,1.4,·,-1.1,0.67,2,i
COc1ccccc1CNC(=O)C(C)NS(=O)(=O)c1ccc(Br)cc1 (stereo unspecified),3.7,0.5,·,-0.1,0.79,2,·
CN1C(=O)CC(NNC(=O)c2ccc(Cl)cc2)C1=O (stereo unspecified),0.5,-0.1,90*,0.5,0.7,-4,·
Cc1csc(SCC(=O)Nc2cc(S(=O)(=O)N(C)C)ccc2C)n1,-1.3,2.7,-4,-0.1,0.65,4,i
O=C1CN(C(=O)CSc2nc(-c3ccccc3)cs2)c2ccccc2N1,-2.1,2.5,-8,2.1,0.69,-1,·
COc1ccc(NC(=O)CC2C(=O)N(c3ccc(OC)cc3)C(=S)N2NC(=O)c2cccc(F)c2)cc1 (stereo unspecified),-1.2,0.5,3,4.7,0.67,3,·
Cc1ccccc1NC(=O)CN1C(=O)c2cccnc2Oc2ccc(Cl)cc21,16,-0.5,-12,2.4,0.67,15,i
CCC(=O)N1CCN(c2ccc(NC(=O)c3cc4ccccc4o3)cc2)CC1,-1.5,0.4,-4,-1.4,0.75,7,·
O=C(Nc1ccc2oc(=O)ccc2c1)c1cccnc1Cl,1.9,-2.9,3,3.4,0.69,-2,·
COc1cc(C)c(Cl)cc1S(=O)(=O)n1cnc(C)c1,-6.0,5.4,0,2.6,0.66,-10,i
COc1ccccc1N1CCN(C(=O)c2ccc(S(=O)(=O)N3CCCC3)cc2)CC1,-1.1,-2.4,6,0.9,0.73,-3,·
CCCCCC(=O)Nc1ccc(-c2nnc3n2CCCCC3)cc1,-0.9,0.7,1,-3.1,0.66,6,i
O=C1N=C(N2CCCCC2)S/C1=C\c1ccncc1,-5.2,8.4,0,-2.1,0.7,0,i
Clc1ccc(Cc2nc(-c3ccncc3)no2)cc1,-1.2,3.6,-10,-1.9,0.65,4,i
CCCCCCN(C(=O)CCCCCN1C(=O)NC(c2ccc(-c3ccccc3)cc2)C(C(=O)OCc2ccccc2)=C1C)C(C(=O)NCCCC)c1cccc(C(=O)OC)c1 (stereo unspecified),·,3.5,·,·,0.72,·,i
Cc1sc2ncn(CC(=O)N3CCCCC3)c(=O)c2c1S(=O)(=O)N1CCC(C)CC1,-3.3,1.0,3,2.0,0.66,2,i
CCC(CC)NC(=O)Nc1ccccc1C(F)(F)F,-7.1,1.7,·,-2.0,0.68,4,i
c1cncc(C(c2nnnn2C2CCCCC2)N2CCN3CCCC3C2)c1 (stereo unspecified),3.0,6.1,-3,0.8,0.7,5,·
COc1cc(C(=O)Oc2cccc(Nc3ncnc4ccccc34)c2)cc(OC)c1OC,0.2,-25,·,4.2,0.71,-7,i
O=C(CSc1nc2ccccc2c(=O)n1-c1ccc(F)cc1)NCc1ccco1,-0.7,1.9,4,-4.1,0.74,-2,i
Cn1c(SCc2nnc(-c3ccccc3Br)o2)nc2sc3c(c2c1=O)CCC3,-5.1,6.4,-7,2.1,0.75,-5,·
CCC1(CC)NC(=O)N(CC(=O)Nc2sc3c(c2C(N)=O)CCC3)C1=O,2.3,2.1,17,3.4,0.73,10,·
CNC(=S)N(Cc1ccco1)Cc1cc2cc3c(cc2[nH]c1=O)OCCO3,2.8,·,-15,1.3,·,-2,i

# Molecules from the list above that contain a CF3 group, in the order listed:
SMILES,LANA-H2A inh,UCH37 DUB inh,ALR inh,HNF4A DNA FP,E coli growth,B2AR ag,FGF22 binding
O=C(Cn1cc(C(F)(F)F)ccc1=O)N1CCc2ccccc2C1,-3.9,2.2,3,2.1,0.68,-3,i
CCC(CC)NC(=O)Nc1ccccc1C(F)(F)F,-7.1,1.7,·,-2.0,0.68,4,i

# Structural class: the compounds so far with a nitro group on carbon.
SMILES,LANA-H2A inh,UCH37 DUB inh,ALR inh,HNF4A DNA FP,E coli growth,B2AR ag,FGF22 binding
COc1ccc(NC(=O)c2ccc([N+](=O)[O-])o2)cc1,-2.8,7.9,-27,-1.7,0.47*,3,i
CC(=O)NS(=O)(=O)c1ccc(Nc2ccc([N+](=O)[O-])c3nonc23)cc1,5.8,25*,-20,20,0.69,4,i

# This is a subset. The share of hits here may be higher or lower than overall.
